From PubChem
Vaccinia mCherry – inhibitors of vaccinia virus infection (mCherry reporter signal) | 310,000 compounds, 0.63% hits | Potency, µM (top dose mostly 36.5 µM), for the others: top-dose activity change, negative = inhibition, most hits filed as inhibitors | AID 720579 | Vaccinia virus mCherry reporter infection, fluorescence; about a quarter of the inactives have no number; active = well fitted inhibition curve with a large enough effect; inconclusive = small, poorly fitted or top-dose-only effect; inactive = no such curve, though single readings can be large or run the other way; tested in A549 cells; further: nearly all actives have a fitted effect of over 35% in size; inactives centre near -10
VACV Venus inh – vaccinia inhibition (Venus reporter); Potency, µM (highest dose often 36.5 µM), for inactives: at the highest dose activity change, negative = inhibition, usual class: inhibitors; Vaccinia virus Venus reporter expression, fluorescence; 330,000 compounds, 0.46% hits; AID 720580; active means well fitted inhibition curve with a large enough effect; inconclusive means small, poorly fitted or top-dose-only effect; inactive means no such curve, though single readings can be large or run the other way; tested in A549 cells; further: nearly all actives have a fitted effect of over 30% in size; inactives centre near -10
* = called active by the depositor; i = inactive; ? = inconclusive; . = not tested or not shown; [ ] = another dose, or the depositor's remark. On the % scale 0 is the no-effect control and ±100 the full control effect; potency means the concentration at half of the fitted maximal effect.

1) O=C(O)C1C2C=CC(C2)C1C(=O)NCCC1=CCCCC1 (stereo not given)
2) Cc1cccc(C(=O)Nc2nnc(SCC(=O)NC3CC3)s2)c1
3) O=[N+]([O-])c1ccc(N2CCN(c3ccc(F)cc3)CC2)cc1
4) COc1ccc(S(=O)(=O)NCC2CCCN(Cc3ccc(C)o3)C2)cc1 (stereo not given)
5) Cc1nc([N+](=O)[O-])c(Sc2nc3ccccc3n2C)n1Cc1ccccc1
6) COc1ccc(C(C(=O)Nc2ccc(C(C)C)cc2)N(C)C(=O)Cc2cccs2)cc1 (stereo not given)
7) COc1ccccc1N1CC(C(=O)Nc2cccc(C(=O)O)c2)CC1=O (stereo not given)
8) Cc1ccsc1C(=O)Nc1cc(Cl)ccc1-n1cncn1
9) Cc1ccc(NC(=O)CCC(=O)NCCO)cc1
10) OCC1OC(n2cnc3c(NCc4ccco4)ncnc32)C(O)C1O (stereo not given)
entry no.,1,2,3,4,5,6,7,8,9,10
Vaccinia mCherry,-12%,-9%,-17%,-7%,-17%,-14%,.,i,i,?
VACV Venus inh,-3%,6%,-17%,-6%,-13%,-6%,-15%,-12%,-7%,?

Complete entries from above. Order of screens: Vaccinia mCherry	VACV Venus inh
Profile of OCC1OC(n2cnc3c(NCc4ccco4)ncnc32)C(O)C1O (stereo not given) → ?	?
Profile of O=C(O)C1C2C=CC(C2)C1C(=O)NCCC1=CCCCC1 (stereo not given) → -12%	-3%
Profile of O=[N+]([O-])c1ccc(N2CCN(c3ccc(F)cc3)CC2)cc1 → -17%	-17%

More structures
11) CCCCSc1nnc(-c2ccccc2)c2ccccc12
12) COc1ccccc1CNC(=O)CN1C(=O)CSc2ccc(S(=O)(=O)N3CCCCC3)cc21
13) COc1ccc(OCc2cc(C(=O)N(C)C(C)c3ccon3)no2)c(Cl)c1 (stereo not given)
14) Cc1cc(NC(=O)COC(=O)CC2CCCC2)c([N+](=O)[O-])cc1C
15) Cc1cccc(OCCSc2nc3ncnc(N)c3[nH]2)c1
16) COc1cccc(C2CC(c3c(-c4ccccc4)c4cc(Cl)ccc4[nH]c3=O)=NN2S(C)(=O)=O)c1OC (stereo not given)
17) COc1ccc(CCOC2OC(CO)C(OC(=O)/C=C/c3ccc(O)c(OC)c3)C(O[C@H]3O[C@@H](C)[C@H](O)[C@@H](O)[C@H]3O)C2O)cc1O (stereo not given in full)
18) COC(=O)C1=COC(OC2OC(CO)C(O)C(O)C2O)C2C1C=CC2(O)CO (stereo not given)
19) COc1cc(/C=C/c2ccnc3ccccc23)cc(OC)c1OC
20) O=C(c1cc2c(s1)-c1ccccc1OC2)N1CCc2ccccc2C1
entry no.,11,12,13,14,15,16,17,18,19,20
Vaccinia mCherry,?,-19%,-3%,-9%,i,.,15%,-5%,-17%,i
VACV Venus inh,-6%,-11%,-19%,7%,-21%,?,-4%,6%,-23%,-3%

21) O=C(CSc1n[nH]c(-c2ccncc2)n1)Nc1ccc(Cl)c(C(=O)O)c1
22) COc1ccc(C=CC(O)CCN2CCC3CCC(C3)C2)cc1 (stereo not given)
23) CCCCC(=O)Nc1ccc(C)c(O)c1
24) CN(C)c1ccc(/C=C2\C=Cc3cc([N+](=O)[O-])ccc32)cc1
25) CCC(c1nnnn1CCOC)N1CCN(c2nc3ccccc3s2)CC1 (stereo not given)
26) Cc1csc(NC(=O)CSc2nnc(-c3ccccn3)n2-c2ccc(C)c(C)c2)n1
27) CN1CCN(C(=S)SCC(=O)Nc2ccc(Cl)cc2C(=O)c2ccccc2)CC1
28) ON1C2CCCCC2N(O)C1c1c(F)c(F)c(F)c(F)c1F (stereo not given)
29) CC(C)c1ccc(S(=O)(=O)N2CCN(C(=O)c3cccc(F)c3)CC2)cc1
30) Cc1ccccc1NC(=O)C1C2CCCC1C2c1ccccc1 (stereo not given)
entry no.,21,22,23,24,25,26,27,28,29,30
Vaccinia mCherry,i,-7%,.,-11%,i,-14%,i,-19%,.,i
VACV Venus inh,-8%,3%,-16%,30%,-12%,-10%,-27%,-15%,-26%,-7%

31) CC(C)C[C@H]1CN([C@@H](Cc2ccccc2)CN2CCC[C@@H]2CN2C(=O)C(=O)NC[C@@H]2Cc2ccc(O)cc2)C(=O)C(=O)N1CCc1ccccc1
32) O=C(CSc1nnc(COc2ccc(Cl)cc2)o1)Nc1ccccc1
33) CCN(CC(=O)NCc1ccc(Cl)cc1)C(=O)/C=C/c1ccco1
34) CCCCNC(=O)C1(C)CCCCN1C(=O)c1c(Cl)cccc1Cl (stereo not given)
35) Cc1ccc(NC(=O)CCn2cccc2)cc1Cl
36) Cc1ccccc1-c1nc(CS(=O)(=O)CC(=O)NCc2ccco2)c(C)o1
37) Cc1oc(-c2ccccc2F)nc1CS(=O)CC(=O)NCc1ccccc1 (stereo not given)
38) CCc1nnc(NS(=O)(=O)c2ccc(NC(=O)c3ccccc3O)cc2)s1
39) CN1CC(=O)N2[C@H](c3ccc4c(c3)OCO4)c3[nH]c4ccccc4c3C[C@@H]2C1=O
40) CSCCC(NS(=O)(=O)c1ccc(C)cc1)C(=O)NCCc1c[nH]c2ccccc12 (stereo not given)
entry no.,31,32,33,34,35,36,37,38,39,40
Vaccinia mCherry,32%[activator],1%,2%,i,.,0%,-6%,i,-20%,-14%
VACV Venus inh,-9%,0%,-6%,-3%,-20%,-9%,-6%,6%,-6%,?

The list goes on; it opens with the 2 that closed the last part.
39) CN1CC(=O)N2[C@H](c3ccc4c(c3)OCO4)c3[nH]c4ccccc4c3C[C@@H]2C1=O
40) CSCCC(NS(=O)(=O)c1ccc(C)cc1)C(=O)NCCc1c[nH]c2ccccc12 (stereo not given)
41) Cc1ccc(N2C(=O)C(Cl)=C(NCc3ccccc3)C2=O)c(C)c1
42) Oc1c(C(c2ccccc2)N2CCN(c3cccc(Cl)c3)CC2)sc2nc(-c3ccco3)nn12 (stereo not given)
43) Cc1cc(C=C2C(=O)NC(=O)NC2=O)c(C)n1-c1cccnc1
44) CCCn1c(SCC(=O)NC2CCCC2)nnc1C(C)C
45) N/C(=N\OC(=O)Oc1ccccc1)c1ccc([N+](=O)[O-])cc1
46) CC(=O)Nc1ccccc1C(=O)C(=O)Nc1ccc(Cl)cc1
47) COc1ccc2c(CC(=O)Nc3ccc4nc(N5CCOCC5)sc4c3)coc2c1
48) COc1ccc(-n2cccc2/C=C2/NC(=O)N(c3cccc(Cl)c3)C2=O)cc1
49) COc1ccc(-n2c(C)c([N+](=O)[O-])c3ccc(O)c(CN(C)C)c32)cc1
50) COC(=O)c1scc(C)c1NC(=O)c1ccc(Cl)cc1
entry no.,39,40,41,42,43,44,45,46,47,48,49,50
Vaccinia mCherry,-20%,-14%,.,-22%,-2%,i,-21%,i,-19%,-23%,.,-10%
VACV Venus inh,-6%,?,-10%,-18%,-11%,-11%,-4%,0%,-17%,-12%,-9%,-4%

51) S=C(Nc1ccc(Oc2ccccc2)cc1)N(CCCN1CCOCC1)Cc1ccccn1
52) CC(=O)N1CCCc2cc(S(=O)(=O)NCc3ccc(N(C)C)cc3)ccc21
53) CCc1ccc(CNC(=O)C2CCN(C(=O)N3CC(CC)Oc4ccc(C)cc43)CC2)cc1 (stereo not given)
54) CCOC(=O)N1CCN(C(=O)c2cccc(S(=O)(=O)Nc3ccc(F)cc3)c2)CC1
55) CCN(C)C1CN(Cc2cn(CCCC(=O)OC)nn2)S(=O)(=O)C1 (stereo not given)
56) O=C1CSC(c2ccccc2[N+](=O)[O-])N1c1ccccc1 (stereo not given)
57) CCC(C)NC(=O)CNC(=O)c1nn(-c2ccc(OC)cc2)c(=O)c2ccccc12 (stereo not given)
58) Cc1ccccc1NC(=O)COc1ccc(Br)cc1C
59) COc1ccc2[nH]c(C)cc2c1
60) COc1ccc(-n2ncc3c(NCCN4CCOCC4)ncnc32)cc1
entry no.,51,52,53,54,55,56,57,58,59,60
Vaccinia mCherry,-17%,-1%,-4%,-17%,-14%,4%,-1%,-3%,-12%,-5%
VACV Venus inh,-10%,-16%,-13%,-9%,-7%,0%,-12%,-11%,-7%,-6%

In the list so far, these have an aryl thioether with sulfur outside any ring:
2) Cc1cccc(C(=O)Nc2nnc(SCC(=O)NC3CC3)s2)c1
5) Cc1nc([N+](=O)[O-])c(Sc2nc3ccccc3n2C)n1Cc1ccccc1
11) CCCCSc1nnc(-c2ccccc2)c2ccccc12
15) Cc1cccc(OCCSc2nc3ncnc(N)c3[nH]2)c1
21) O=C(CSc1n[nH]c(-c2ccncc2)n1)Nc1ccc(Cl)c(C(=O)O)c1
26) Cc1csc(NC(=O)CSc2nnc(-c3ccccn3)n2-c2ccc(C)c(C)c2)n1
32) O=C(CSc1nnc(COc2ccc(Cl)cc2)o1)Nc1ccccc1
44) CCCn1c(SCC(=O)NC2CCCC2)nnc1C(C)C
entry no.,2,5,11,15,21,26,32,44
Vaccinia mCherry,-9%,-17%,?,i,i,-14%,1%,i
VACV Venus inh,6%,-13%,-6%,-21%,-8%,-10%,0%,-11%

(continued)
61) Cc1ccc(C2=NN(C(=O)CCC(=O)O)C(c3cccs3)C2)cc1 (stereo not given)
62) COCc1cc(CN(C)C(=O)c2oc3c(F)cccc3c2C)[nH]n1
63) Cc1ccc(C(=O)COC(=O)c2ccc(Br)o2)cc1C
64) O=C(NCc1ccccc1)C1CCN(C(=O)c2cnn(-c3ccccc3)c2-n2cccc2)CC1
entry no.,61,62,63,64
Vaccinia mCherry,-1%,-26%,-18%,-5%
VACV Venus inh,4%,-12%,-16%,-4%
